PKD1 kinase inh = blocks activity of human protein kinase D1 | hit rate 0.056% among 200,000 | inhibition, %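 (about 10 µM by stock and volumes)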 | Q15139 | PKD1 kinase fluorescence polarization assay | AID 797;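 active = inhibition of 50% or more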;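 also: controls were vehicle for no effect and a reference inhibitor for full effect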
HSV augment = increases HSV replication in cells. HSV replication augmentation in cells, fold increase. maximum fold increase. hit rate 0.005% among 220,000;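 active = peak rise of 1.5-fold or more in the series; tested in PC3 cells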;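 also: first round at 10 µM; read as green reporter fluorescence; hits show the peak of a series up to 25 µM; 1 = signal of infected wells without compound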
GALR2 agonist = GALR2 (human) receptor agonism. O43603. GALR2-expressing cells, agonist activation read-out. activation, %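 (tested at 5 µM)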. hit rate 0.48% among 140,000. AID 803;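 active = above mean plus 3 SD of all compounds, about 5% in these data, not always enough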;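 also: 0% = vehicle buffer wells and 100% = reference agonist at full effect; tested in CHO reporter cells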
Target sequence (O43603 whole entry, looked up): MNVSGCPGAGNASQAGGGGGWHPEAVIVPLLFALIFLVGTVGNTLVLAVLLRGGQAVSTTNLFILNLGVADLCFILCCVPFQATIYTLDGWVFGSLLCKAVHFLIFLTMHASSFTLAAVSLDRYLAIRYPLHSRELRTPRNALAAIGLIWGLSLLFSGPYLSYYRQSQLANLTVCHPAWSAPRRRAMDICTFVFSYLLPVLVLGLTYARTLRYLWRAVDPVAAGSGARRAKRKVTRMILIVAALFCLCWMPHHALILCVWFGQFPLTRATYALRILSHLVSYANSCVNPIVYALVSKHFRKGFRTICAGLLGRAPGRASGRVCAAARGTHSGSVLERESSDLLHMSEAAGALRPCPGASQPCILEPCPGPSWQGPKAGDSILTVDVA
INS promoter inh = TRM-6 insulin promoter activity inhibition; TRM-6 cells (human fetal islet line), insulin promoter-eGFP reporter, imaging; reporter expression induced with tamoxifen; hit rate 0.9% among 130,000; AID 1273; inhibition, % at 2 µM;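 active = inhibition above the mean plus 3 SD, with well images judged a real hit on visual review, cut at about 60% in these data, passing the limit was not always enough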
RGS16-Gao HTS = modulates binding between human RGS16 and Galphao. O15492+P09471. hit rate 0.38% among 220,000. binding response (% of control), % at 10 µM. bead-based flow cytometry RGS16-Galphao binding, fluorescence; actives lie on both sides;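 active = below 25% or above 175%, edge rows of some plates excepted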;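 also: Galphao activated by GDP with aluminum fluoride before binding; 100% = wells without compound and 0% = beads without RGS; some results beyond the cut were filed as inactive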
Target sequence (O15492 whole entry, looked up): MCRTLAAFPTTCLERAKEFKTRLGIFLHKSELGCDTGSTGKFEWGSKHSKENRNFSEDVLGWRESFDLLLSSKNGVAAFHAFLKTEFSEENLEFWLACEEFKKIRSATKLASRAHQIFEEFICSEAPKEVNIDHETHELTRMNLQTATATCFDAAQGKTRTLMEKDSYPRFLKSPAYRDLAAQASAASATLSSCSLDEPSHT
Target sequence (P09471 whole entry, looked up): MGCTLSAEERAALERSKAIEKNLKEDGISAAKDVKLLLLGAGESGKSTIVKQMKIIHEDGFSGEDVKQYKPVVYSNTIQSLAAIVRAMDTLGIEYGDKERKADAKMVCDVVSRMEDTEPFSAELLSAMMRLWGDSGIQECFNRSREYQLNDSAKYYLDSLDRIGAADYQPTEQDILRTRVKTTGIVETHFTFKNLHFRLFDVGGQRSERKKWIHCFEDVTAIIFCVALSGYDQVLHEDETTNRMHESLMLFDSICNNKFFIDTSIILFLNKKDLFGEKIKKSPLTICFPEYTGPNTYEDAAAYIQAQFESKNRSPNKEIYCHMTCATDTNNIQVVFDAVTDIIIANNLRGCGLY
INS promoter inh cell count = further read-out of INS promoter inh, marked with its call; normalized cell count, %; measured here: cell count, toxicity; reference of the scale not given here;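 cells exposed to compound for 48 h; stained nuclei by imaging scaled within each plate; lower means fewer cells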
HSV augment primary fold = second read-out of HSV augment, no call of its own (marks repeat the call); fold increase; compound at 10 µM; measured here: primary screen fold increase 10 uM; tested in PC3 cells;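 GFP signal in the first replicate; 1 = infected wells without compound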
The depositor's hits bear a star; i = inactive; . = no result given.

Screens in order: PKD1 kinase inh	HSV augment	HSV augment primary fold	GALR2 agonist	INS promoter inh	INS promoter inh cell count	RGS16-Gao HTS
- COc1ccc(/C=N/OCC(=O)Nc2ccc3c(c2)OCO3)c(OC)c1
 : -3	i	0.89	.	50	86	33
- COc1cccc(-c2nc(CS(=O)(=O)CC(=O)NCCC(C)C)c(C)o2)c1
 : -8	i	0.86	-0.1	.	.	104
- COc1cc(C)nc(N(C)C(C)=O)n1
 : -11	i	0.9	-1.3	17	85	103
- Cc1ccc(Cc2cnc(NC(=O)c3cccs3)s2)cc1
 : 1	i	0.97	-0.7	-34	45	92
- CCOC(=O)C1=C(c2ccccc2)N(C)C(=O)NC1c1ccc(OC(F)F)c(OC)c1 (stereo not given)
 : -10	i	0.93	-0.9	.	.	107
- Cc1ccc(S(=O)(=O)N2CCN(C(=O)CC3CCCC3)CC2)cc1
 : 2	i	1.2	-1.3	.	.	99
- COCCn1c(SCc2ccc(OC)c(F)c2)nc2ccccc2c1=O
 : -6	i	1	.	.	.	97
- C=CCc1c(C)nc2c(OC)cccc2c1Cl
 : -4	i	1	.	17	75	73
- COCCNC(=O)C(c1ccccc1)N(CCOC)C(=O)Cn1nnc2ccccc21 (stereo not given)
 : 16	i	0.92	-1.0	-71	75	109
- N#C/C(=C(/O)COC(=O)c1ccccc1O)c1nc2ccccc2s1
 : 2	i	1.2	.	-39	99	95
- O=C(CSc1nnnn1-c1ccc(F)cc1)NC1CCCCC1
 : -2	i	0.86	0.3	-36	100	69
- COc1ccc(C2C(C(=O)Nc3cccc(C)n3)c3ccccc3C(=O)N2C)cc1 (stereo not given)
 : 0	i	0.92	-1.9	29	59	105
- CCOC(=O)C/C(C)=N/NC(=O)CNc1cccc(Cl)c1C
 : -6	i	0.98	.	.	.	102
- CCn1c(-c2cccn(Cc3ccc(Cl)cc3Cl)c2=O)n[nH]c1=S
 : -5	i	1.1	.	.	.	94
- COc1ccc(-c2nc(CSCC(=O)NCC3CCCO3)c(C)o2)cc1OC (stereo not given)
 : 3	i	0.96	-1.7	14	98	99
- CCSCc1nnc(SCC(=O)Nc2nccs2)n1CC
 : -1	i	1	.	26	91	104
- O=C(CCc1ccccc1)Nc1ccc(NC(=O)C2CCCCC2)nc1
 : 1	i	0.97	.	38	73	109
- CC(C)OCCCNC(=O)c1ccc2c(c1)ncn2C1CCCC1
 : -4	.	.	-1.5	-10	111	107
- O=C(/C=C/c1ccccc1)Nn1cnnc1
 : -2	i	0.73	-1.4	17	77	106
- COc1cccc(NC(=S)N2CCN(Cc3ccccc3)CC2)c1
 : 4	i	0.81	0.1	.	.	102
- COc1ccc(NC(=O)CSc2nc3ccccc3c3nc4ccccc4n23)cc1
 : -7	i	0.61	1.9	.	.	142
- Cc1cc(C)nc(NC(=O)c2ccc(OC(C)C)cc2)n1
 : -2	i	0.91	-2.6	-6	35	100
- Cc1ccc(-c2csc(NC(=O)COc3ccc(N(C)S(=O)(=O)c4ccc(C)cc4)cc3)n2)cc1
 : -5	i	1	-1.0	3	141	109
- Cc1nc2ncnn2c(C)c1CCC(=O)NC(C)CCc1ccco1 (stereo not given)
 : -6	i	0.78	-1.5	3	113	99
- C[C@H](NC(=O)c1ccccc1Cl)C(=O)OC(C(=O)Nc1cc(C(F)(F)F)ccc1Cl)c1ccccc1 (stereo not given in full)
 : -4	i	0.94	-0.5	0	93	100
- Cc1cnc(NC(=O)c2cc3c(C)nn(-c4ccccc4)c3s2)s1
 : -4	i	0.94	2.7	26	136	109
- CCCn1c(SCC(=O)NCCc2ccccc2)nnc1-c1ccccn1
 : -2	i	0.97	-2.0	-8	66	102
- COc1cc(/C=C2\SC(=O)NC2=O)ccc1Oc1cnccn1
 : -5	i	1.1	.	.	.	103
- O=C(NCCO)C1CCN(S(=O)(=O)c2ccc(F)cc2)CC1
 : 11	.	.	-0.4	-50	97	100
- O=C(N1CCCCCC1)N1CCN(C(=O)N2CCOCC2)CC1
 : -3	i	1.1	-2.7	-488	46	87

Overlap with the part before: four compounds, then new ones.
Screens in order: PKD1 kinase inh	HSV augment	HSV augment primary fold	GALR2 agonist	INS promoter inh	INS promoter inh cell count	RGS16-Gao HTS
- CCCn1c(SCC(=O)NCCc2ccccc2)nnc1-c1ccccn1
 : -2	i	0.97	-2.0	-8	66	102
- COc1cc(/C=C2\SC(=O)NC2=O)ccc1Oc1cnccn1
 : -5	i	1.1	.	.	.	103
- O=C(NCCO)C1CCN(S(=O)(=O)c2ccc(F)cc2)CC1
 : 11	.	.	-0.4	-50	97	100
- O=C(N1CCCCCC1)N1CCN(C(=O)N2CCOCC2)CC1
 : -3	i	1.1	-2.7	-488	46	87
- COc1ccc(N2C(=O)CC(S/C(N)=N/N=C(\C)c3cccs3)C2=O)cc1 (stereo not given)
 : 0	i	0.9	-3.8	11	203	103
- O=C1c2ccccc2NC(c2ccccc2)N1CCCN1CCOCC1 (stereo not given)
 : .	i	1.1	.	.	.	105
- O=C1OC(NC(=O)c2ccccc2)C(n2cc(CO)nn2)=C1Cl (stereo not given)
 : -13	i	1.1	-1.3	.	.	94
- O=C(NCc1cccs1)c1ccc([N+](=O)[O-])cc1
 : -3	i	1	0.5	30	132	99
- Cc1ccc(Cl)cc1N1CCN(C(=O)CN(C2CCCCC2)S(C)(=O)=O)CC1
 : 5	i	0.87	0.1	-300	62	103
- CC1CC(C)CN(c2ccc([N+](=O)[O-])nc2)C1 (stereo not given)
 : 5	i	1.1	.	.	.	112
- Cc1ccc(Cn2c(SCC(C)C)nc3c2c(=O)n(C)c(=O)n3C)cc1
 : -10	i	0.92	-0.6	8	49	101
- C=CCn1c(SCc2nc3ccccc3c(=O)[nH]2)nc2sc3c(c2c1=O)CCCC3
 : .	i	0.95	.	.	.	98
- COc1ccc(/C=C/C(=O)c2ccoc2)cc1
 : -4	i	0.94	-2.1	-29	118	104
- COC(=O)c1ccc(CSc2nc3c(cnn3-c3ccc(C)cc3)c(=O)[nH]2)o1
 : 0	.	.	-2.6	6	100	102
- CCN(CC)C(=O)C1=C(C)NC(=O)NC1c1c(F)cccc1Cl (stereo not given)
 : -4	i	0.94	-0.6	-38	105	106
- CCS(=O)(=O)N1CCC(C(=O)NCc2ccco2)CC1
 : -7	i	0.76	0.1	.	.	92
- CCOC(=O)N1CCN(S(=O)(=O)c2ccc3[nH]c(=O)sc3c2)CC1
 : -3	i	1.1	-0.4	.	.	100
- Cn1nccc1C(=O)Oc1ccc(/C=N/NC(=O)c2ccccc2O)cc1
 : 2	i	0.95	.	47	119	112
- O=C(O)CC(C(=O)O)N1C(=O)/C(=C/C=C/c2ccco2)SC1=S (stereo not given)
 : .	i	1.2	.	.	.	96
- O=C(OCn1ncc(Cl)c(Cl)c1=O)c1ccc(F)cc1
 : -9	i	0.52	-2.8	-243	11	105
- CC1CCN(C2CCN(S(=O)(=O)c3ccc(F)cc3)CC2)CC1
 : -7	i	0.78	-2.7	-32	168	101
- CC(C)(C)n1nc2c(c1NC(=O)CCCc1ccccc1)CS(=O)C2 (stereo not given)
 : 1	i	0.88	-0.2	.	.	102
- Cc1ccc2cccc(NC(=S)NC(=O)c3ccnn3C)c2n1
 : 4	i	0.89	-2.8	31	110	104
- Cc1ccc(N2C(=O)c3ccc(C(=O)N4CCN(Cc5ccccc5)CC4)cc3C2=O)cc1
 : .	i	0.9	.	.	.	101
- C#CC[N+]1(CC#Cc2ccc(C)cc2)CCCCC1
 : -2	i	0.9	-1.5	4	101	106
- CCc1c(O)cc2n(c1=O)-c1ccccc1C2(C)C
 : -7	i	1.2	-3.9	.	.	103
- CC12C(=O)N(c3ccccn3)C(=O)C1C1C=CC2C1 (stereo not given)
 : -9	i	1.2	-1.2	.	.	99
- C1CCCCCC2(CCCCC1)OCC(CN1CCOCC1)O2 (stereo not given)
 : 5	i	0.99	0.0	.	.	95
- CCCCCc1nc2c(C#N)c(-c3ccc(Cl)cc3)ccn2n1
 : -2	i	0.89	-0.9	27	122	102
- COc1ccc(/C=N/N2CCOCC2)cc1Cn1nc(C)c([N+](=O)[O-])c1C
 : .	i	0.94	.	.	.	103
- COc1ccc2c(c1)cc1n2CCN=C1NCCO
 : -8	i	0.88	-1.0	-11	127	100
- CCOc1ccc(/C=N/NC(=S)Nc2c(C)cccc2C)cc1
 : -6	i	0.86	-1.0	0	96	101
- CC(C)C1COC(c2cccn2Cc2ccccc2Cl)=N1 (stereo not given)
 : 4	i	1	.	.	.	105
- O=C(CSc1nnnn1-c1ccc(O)cc1)Nc1cccc(S(=O)(=O)N2CCCC2)c1
 : -5	i	0.91	-0.5	-54	24	101

(next part)
| canonical_smiles | PKD1 kinase inh | HSV augment | HSV augment primary fold | GALR2 agonist | INS promoter inh | INS promoter inh cell count | RGS16-Gao HTS |
| --- | --- | --- | --- | --- | --- | --- | --- |
| COc1ccc(OC)c(NC(=O)C2CCCN(S(=O)(=O)c3c(C)noc3C)C2)c1 (stereo not given) | 7 | i | 1.1 | -2.2 | . | . | 100 |
| COc1ccc(CNC(=O)/C=C/C(=O)O)cc1OC | 5 | i | 0.94 | 0.3 | . | . | 103 |
| Cc1ccc(SCCC(=O)Nc2ccccc2C(=O)NC(C)C)cc1 | -7 | i | 0.96 | -0.1 | . | . | 108 |
| COc1cc2c(cc1O)CC[n+]1cc3c(OC)c(OC)ccc3cc1-2 | -7 | i | 1.1 | -1.9 | -20 | 124 | 57 |
| Cc1ccc(-c2nc(C)sc2CC(=O)OCC(=O)Nc2c(F)cccc2F)cc1 | 4 | i | 0.9 | -2.0 | -19 | 49 | 99 |
| CCc1ccc(NC(=O)c2cnn3ccccc23)cc1 | 2 | i | 0.83 | -1.7 | . | . | 103 |
| Cc1cc(C(=O)c2ccccc2)c(NC(=O)CCl)s1 | 2 | . | . | -0.8 | . | . | 114 |
| O=C(CO/N=C/c1c(Cl)cccc1Cl)NNC(=O)c1cccc(Cl)c1 | . | i | 1 | . | . | . | 94 |
| CCOC(=O)C(CCCCOc1cccc(CC)c1)C(=O)OCC | -12 | i | 1.1 | 0.1 | 42 | 138 | 78 |
| CN(C(=O)c1ccc2c(Cl)c3c(nc2c1)CCC3)c1ccccc1 | -3 | i | 0.93 | 0.6 | -30 | 114 | 106 |
| COc1cccc(C2(O)CCN(C(=O)C3CC3)CC2)c1 | -13 | i | 0.72 | -0.5 | . | . | 106 |
| O=S(c1ccsc1)c1ccsc1 | -8 | i | 0.97 | -1.6 | 16 | 181 | 118 |
| O=C(CSc1ccc(Cl)cc1)NNC(=O)c1cccnc1 | 4 | i | 1.1 | . | . | . | 103 |
| O=C(O)c1cc(-c2ccco2)nn1-c1cccc(Cl)c1 | 0 | i | 1.1 | . | 20 | 92 | 97 |
| COc1ccc(C(=O)C2CCCN(Cc3cccn3-c3ccccn3)C2)c(OC)c1 (stereo not given) | 4 | i | 0.9 | . | . | . | 99 |
| Cc1ccc(NC(=O)C(=O)NNC(=O)c2cccs2)cc1 | -5 | i | 0.97 | . | 17 | 129 | 109 |

Gathered by group: the entries above with a cyano group.
| canonical_smiles | PKD1 kinase inh | HSV augment | HSV augment primary fold | GALR2 agonist | INS promoter inh | INS promoter inh cell count | RGS16-Gao HTS |
| --- | --- | --- | --- | --- | --- | --- | --- |
| N#C/C(=C(/O)COC(=O)c1ccccc1O)c1nc2ccccc2s1 | 2 | i | 1.2 | . | -39 | 99 | 95 |
| CCCCCc1nc2c(C#N)c(-c3ccc(Cl)cc3)ccn2n1 | -2 | i | 0.89 | -0.9 | 27 | 122 | 102 |

Source: PubChem (several laboratories)
